# Assay outcomes deposited in PubChem BioAssay by several laboratories.
# B2AR ag – activates human beta-2 adrenergic receptor causing internalization. 0.43% of 340,000 active. Am2.2-beta2AR cells, FAP receptor internalization, flow cytometry; reference of the scale not given here. response, % (concentration not given with the values). P07550;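 active = response above a set limit, near 3 SD of response in nonfluorescent compounds, cut at about 42% in these data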;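 also: stock transfer was 100 nL into about 11 µL; a reference agonist was the positive control; negative values mostly stem from fluorescent compounds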
# HNF4A DNA FP – change in binding of human HNF4 alpha to DNA. AID 1224865. activity change, % at 10 µM. 0.3% of 360,000 active. P41235. HNF4a-FITC DNA binding, fluorescence polarization, 1 h; in the data active = activity change above about 30%, passing the limit was not always enough;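 also: controls were the assay level and a saturating level of protein; the project sought stronger binding though the title names inhibitors; some compounds called inactive have numbers as strong as hits; positive values seem to mean higher polarization but the record does not say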
# UCH37 DUB inh – inhibitors of human deubiquitinating enzyme UCH37. 0.33% of 330,000 active. purified proteasome/UCH37, Ub-AMC cleavage fluorescence. inhibition, % (no concentration beside the values);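 active = mean of two replicates above 20%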;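 also: 0% = compound-free wells with enzyme and 100% = wells lacking proteasome; stock transfer was 100 nL into about 20 µL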
#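 Signal – fluorescence, ex 355 nm, em 460 nm · System – Proteasome-bound UCH37 · Input – 0.15 nM proteasome as dispensed · Timing – 30 min preincubation with enzyme, 25 min cleavage at room temperature · Read-out basis – percent inhibition of cleavage signal versus uninhibited and no-proteasome wells · Medium – Tris-HCl pH 7.4 with ATP-MgCl2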
# LANA-H2B inh – blocks KSHV LANA binding to histone H2A/H2B; 0.6% of 320,000 active; cell-free LANA-H2A/H2B peptide, fluorescence polarization; inhibition, % (concentration not given with the values); in the data active = inhibition mostly above about 10%, no sharp cut-off; inactive = mostly below about 6.7%;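 also: stock transfer was 7.5 nL into about 10 µL; 0% = median of vehicle wells and 100% = median of positive control wells; one replicate is shown; the record names a cut of 25% in any replicate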
# Target sequence (Q9QR71 whole entry, looked up): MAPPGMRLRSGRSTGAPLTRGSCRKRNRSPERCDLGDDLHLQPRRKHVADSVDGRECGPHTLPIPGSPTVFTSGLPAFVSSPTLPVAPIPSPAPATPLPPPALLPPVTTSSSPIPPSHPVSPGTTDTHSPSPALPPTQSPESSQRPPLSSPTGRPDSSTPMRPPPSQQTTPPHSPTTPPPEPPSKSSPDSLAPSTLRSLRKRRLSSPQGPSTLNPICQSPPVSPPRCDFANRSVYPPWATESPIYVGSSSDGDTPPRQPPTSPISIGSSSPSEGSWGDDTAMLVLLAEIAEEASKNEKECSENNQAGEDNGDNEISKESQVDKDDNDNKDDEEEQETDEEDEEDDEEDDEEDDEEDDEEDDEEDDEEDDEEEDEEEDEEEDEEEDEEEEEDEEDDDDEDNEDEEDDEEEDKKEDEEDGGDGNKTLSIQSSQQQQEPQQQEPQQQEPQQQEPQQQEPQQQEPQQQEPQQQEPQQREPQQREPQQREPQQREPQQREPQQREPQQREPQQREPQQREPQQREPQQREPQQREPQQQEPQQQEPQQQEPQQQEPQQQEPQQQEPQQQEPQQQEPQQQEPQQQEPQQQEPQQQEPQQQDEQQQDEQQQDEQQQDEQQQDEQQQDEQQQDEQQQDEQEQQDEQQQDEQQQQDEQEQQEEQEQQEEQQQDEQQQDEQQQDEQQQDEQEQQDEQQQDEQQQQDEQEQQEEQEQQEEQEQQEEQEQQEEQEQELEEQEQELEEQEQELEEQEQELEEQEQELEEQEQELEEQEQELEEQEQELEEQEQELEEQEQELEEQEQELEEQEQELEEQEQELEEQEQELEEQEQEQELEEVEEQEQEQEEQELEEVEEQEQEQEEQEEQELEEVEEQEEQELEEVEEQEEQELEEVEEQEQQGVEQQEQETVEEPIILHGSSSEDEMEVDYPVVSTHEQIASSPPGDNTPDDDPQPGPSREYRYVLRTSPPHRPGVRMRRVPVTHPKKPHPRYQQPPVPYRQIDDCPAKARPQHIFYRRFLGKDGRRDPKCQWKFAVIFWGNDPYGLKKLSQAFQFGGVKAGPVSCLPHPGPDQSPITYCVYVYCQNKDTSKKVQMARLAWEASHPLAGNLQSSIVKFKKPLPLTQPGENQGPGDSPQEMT
# A1 inh – inhibitors of the anti-apoptotic protein A1, read as caspase activation | MEF A1-2A-BIM cells, Caspase-Glo 3/7 luminescence, 3 h; percent of clofoctol response, vehicle zero | 0.066% of 330,000 active | caspase activation, % (concentration not given with the values) | AID 2462;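 active = over half of replicate activation scores above 10%, or exactly half above 10 with the replicate mean above 10; inconclusive = replicate mean below 10 yet half the replicates above 10; inactive = over half of replicates below 10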;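 also: wells of about 30 µL received 50 nL stock; many hits fall short of the cut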
# Vif TR-FRET – inhibitors of Vif binding to APOBEC3G peptide, primary screen, biochemical, TR-FRET, GST-Vif 1-94, biotin-A3G peptide, dose response retest (AID 1117319) | TR-FRET GST-Vif / biotin-A3G peptide binding; higher % means a stronger effect; test concentration not given here; strong numbers were not always called active | inhibition, %; hits with a dose series show IC50 in µM | 0.57% of 260,000 active;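 active = above the screen mean plus three standard deviations and confirmed in dose response; inconclusive = results disagree or hit not tested in dose response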;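 also: Vif residues 1-94 fused to GST binding biotinylated APOBEC3G peptide 110-148; 0% = full assay without inhibitor and 100% = GST in place of GST-Vif; retest series ran down from 100 µM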
# E coli growth – inhibitors of Escherichia coli growth. OD600, 23 h; stronger effect = lower value. OD600 absorbance (no concentration beside the values). 0.21% of 330,000 active;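 active = OD600 absorbance below the run mean of sample wells minus 3.6 SD, in any replicate, cut at about 0.56 in these data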;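 also: stock transfer was 300 nL into about 60 µL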
# * hit, by the source's call; ? = inconclusive; / = not tested or not shown.
SMILES,B2AR ag,HNF4A DNA FP,UCH37 DUB inh,LANA-H2B inh,A1 inh,Vif TR-FRET,E coli growth
COc1ccccc1CNC(=O)CN1CCN(S(=O)(=O)c2cccs2)CC1,-0.2,-2.1,3.4,3.2,0.0,2.7%,0.711
CCN(CC)CCNC(=O)c1ccc2c(=O)n(C3CCCC3)c(=S)[nH]c2c1,1.3,0.6,1.4,-0.6,2.2,25.5%,0.674
COc1ccc(OC)c(C(=O)c2ccc(C(=O)Nc3ccc(NC(C)=O)cc3)cc2)c1,-9.6,2.4,3.4,-5.0,0.0,/,0.662
CCN(CC)C(=O)Cn1cc([N+](=O)[O-])cc1[N+](=O)[O-],-6.2,-1.5,5.3,/,/,-12.2%,0.688
O=C(NNS(=O)(=O)c1ccc(F)c(Cl)c1)c1cccc(S(=O)(=O)N2CCOCC2)c1,-7.3,-3.6,0.2,-2.1,0.0,23.8%,0.664
Cc1cc(C(=O)NNC(=O)c2ccccc2F)c2ccccc2n1,0.0,0.8,2.1,-1.3,-0.2,/,0.666
COc1cc(-c2nnc(SCC(=O)c3ccccc3)o2)cc(OC)c1OC,3.1,-5.4,1.0,0.4,0.4,2.5%,0.635
O=C(NCc1cccc(Cl)c1)C1CCC(=O)N(C2CC2)C1 (stereo not drawn),2.2,2.0,1.3,1.9,-0.1,-3.0%,0.657
Cc1nc(N2CCOCC2)c2c3c(sc2n1)CCC3,-2.1,5.0,3.4,0.8,1.6,-7.0%,0.707
C[C@H]1CN([C@@H](C)CO)C(=O)Cc2cc(NS(=O)(=O)c3cccs3)ccc2O[C@H]1CN(C)S(=O)(=O)c1cn(C)cn1,-3.8,0.7,1.9,3.0,-0.2,/,/
Cc1c(NC(NC(=O)CC(C)C)C(Cl)(Cl)Cl)c(=O)n(-c2ccccc2)n1C (stereo not drawn),0.1,-0.3,-1.0,5.8,-0.8,2.4%,0.682
CN(C(=O)c1cc([N+](=O)[O-])ccc1NCc1cccnc1)c1ccccc1,8.0,3.0,9.7,-2.0,-0.2,/,0.677
CC(C)CCC[C@@H](C)[C@H]1CC[C@H]2[C@@H]3C(=O)C=C4C[C@@H](O)CC[C@]4(C)[C@H]3CC[C@]12C,-2.0,-0.2,0.3,2.2,-0.1,/,/
CC(C)NC(=O)CCCC(=O)NC(C)C,5.8,-0.2,/,-2.6,0.3,-5.1%,/
O=S(=O)(c1ccccc1)c1nc(-c2ccccc2)oc1NCCCN1CCOCC1,-3.3,4.0,1.2,-0.3,0.6,9.1%,0.728
CCN(CC)S(=O)(=O)c1ccc(N2CCN(C)CC2)c(NC(=O)COc2ccc(F)cc2Cl)c1,10.7,2.9,4.5,3.2,0.2,1.5%,0.674
Cc1nnc(Nc2ccc(S(N)(=O)=O)cc2)c2ccccc12,-5.5,1.9,-5.2,6.8,0.5,-3.1%,0.725
CC(=O)Nc1ccc(S(=O)(=O)NCC2CCC(C(=O)NC3CCCCCC3)CC2)cc1 (stereo not drawn),-1.0,-2.1,2.9,3.2,0.0,14.3%,0.66
CCN(C(=O)COC(=O)c1cnc(C)cn1)c1c(N)n(Cc2ccccc2)c(=O)[nH]c1=O,-0.2,2.1,-2.0,-53.6,0.1,2.1%,0.685
O=C(c1ccncc1)N1CCN(C(=O)c2ccncc2)CC1,-5.8,4.2,6.3,3.0,0.0,17.2%,0.705
CC(CNC(=O)CN1C(=O)C(=O)N(C2CCCC2)C1=O)c1ccccc1 (stereo not drawn),10.4,1.6,2.9,-2.5,0.0,-10.3%,0.684
CC(=O)NC(CC(=O)OCC(=O)Nc1ccc2c(c1)OCO2)c1ccccc1 (stereo not drawn),-4.7,-3.2,3.4,1.5,0.8,3.3%,0.674
CC(=O)[C@@H]1[C@@H](C)N(Cc2ccccc2)C(=O)N[C@H]1c1cccc(C(F)(F)F)c1,9.8,-0.2,0.5,0.2,-0.3,-1.6%,/
O=C1NCN(CCO)CN1,-0.4,-2.6,0.4,5.2,1.4,-5.7%,0.666
CC1CN(C(=O)COC(=O)c2ccc(Cl)nc2)CC(C)O1 (stereo not drawn),-3.4,-4.0,0.4,2.7,0.0,-4.6%,0.678
Cc1cc(OC(C)C)nc(NCc2ccccc2)n1,-8.5,-0.2,2.8,2.7,0.6,-4.1%,0.744
O=c1nc(/C=C/c2cccn2-c2ccc([N+](=O)[O-])cc2)cc(C(F)(F)F)[nH]1,-2.9,4.7,3.4,0.4,0.6,?,/
O=C(/C=C/c1ccccc1Cl)Nc1ccncc1,-1.7,0.3,0.7,0.8,-4.2,-2.4%,/
O=C(N/N=C\c1ccccn1)C1c2ccccc2Oc2ccccc21,4.7,-1.7,/,2.5,0.3,-9.6%,/
COC(=O)c1sccc1NC(=O)c1c(C)noc1C,1.8,2.3,2.7,-3.5,0.5,6.2%,0.726
COc1ccc(NC(=O)CN(C)C(=O)CN2C(=O)c3ccc([N+](=O)[O-])cc3C2=O)cc1,-4.5,3.4,2.5,-2.9,0.8,/,0.695
CCOC(=O)Cn1c(=NC(=O)CSC(C)=O)sc2ccccc21,15.5,-1.3,4.0,1.3,-0.7,-2.5%,0.756
Nc1cc(=O)[nH]n1C1CCN(c2ccccc2)CC1,-11.2,-1.3,1.4,0.2,1.0,1.1%,0.72
CC(O)CNCCCOc1cccc(C(F)(F)F)c1 (stereo not drawn),1.0,-1.1,4.5,6.4,-1.0,-5.6%,0.709
Cc1ccc(NC(=O)c2ccc(S(=O)(=O)N3CC(C)CC(C)C3)cc2)cc1S(=O)(=O)N1CCOCC1 (stereo not drawn),5.6,0.4,1.1,/,/,/,0.66
COc1cc(NC(=O)CSCc2ccc(Cl)cc2Cl)c(C(=O)O)cc1OC,3.2,2.6,1.9,2.7,1.4,/,0.648
CCC1=NN2C(=N)/C(=C/c3ccc(OS(=O)(=O)c4ccc(C)cc4)c(OC)c3)C(=O)N=C2S1,4.4,0.7,1.7,-0.8,-0.5,5.2%,0.631
CCn1c(C)cc(C(=O)COC(=O)c2ccccc2[N+](=O)[O-])c1C,3.5,-3.3,6.7,6.3,-12.6,/,0.669
CCC(CC)c1nnc(NC(=O)CCS(=O)(=O)Cc2ccccc2)s1,11.4,0.3,1.6,5.4,-0.1,/,0.641
CCCCN1C(N)=NC[C@@H]1Cc1ccccc1,1.6,-0.1,2.0,1.6,0.9,/,/
Cc1cc(C)c2nc3nc(C)c(C)cc3c(N)c2c1,-2.0,2.2,-308.5,/,/,-7.7%,0.65
CCCCOc1ccc(-c2nnn(CCC(=O)N3CCOCC3)n2)cc1,-11.0,0.2,2.2,-4.2,0.1,?,0.672
COc1cc2cc(CN(CCO)S(=O)(=O)c3ccccc3Cl)c(=O)[nH]c2cc1OC,13.1,-3.7,-134.5,3.6,0.3,14.6%,0.718
Cc1[nH]c(=O)[nH]c(=O)c1S(=O)(=O)N(C)Cc1ccccc1,-5.2,-1.2,0.5,-1.7,0.4,17.3%,0.65
CCN1CCN(c2nc3c(c(=O)[nH]c(=O)n3C)n2Cc2ccccc2F)CC1,1.9,2.9,2.1,2.0,1.1,/,0.629
Cc1nn(C(=O)c2ccco2)c(C)c1Sc1ccc(Cl)cc1,-10.3,1.7,1.6,-0.6,1.0,/,0.718
COC(=O)COc1ccc(NS(=O)(=O)c2cccc([N+](=O)[O-])c2)cc1,14.7,0.4,2.5,6.3,-0.4,-1.1%,0.716
O=C(Nc1ccccc1N1CCOCC1)c1cc(=O)[nH]c2ccccc12,-2.1,1.8,3.1,1.7,1.8,4.8%,0.687
CCCCNC(=S)N(C)/N=C/c1ccc(OCC(=O)Nc2c(C)cc(C)cc2C)c(OC)c1,8.6,-0.9,/,3.4,0.1,/,/
CCOc1ccc(NC(=O)CSc2ncnc3c2sc2ccccc23)cc1,-0.1,-1.0,2.1,-462.2,-0.1,-4.4%,0.676
COc1ccc(OC)c(NC(=O)COc2ccc(S(=O)(=O)NC(C)C)cc2)c1,0.0,0.9,3.0,-1.8,-0.7,14.7%,0.604
Fc1ccc(Oc2nc(-c3ccccc3)nnc2C(F)(F)F)cc1,5.6,1.0,2.3,10.1*,0.1,6.8%,0.796
CSc1ccc(S(=O)(=O)NCc2ccccc2C)cc1,-1.4,-1.3,1.2,1.0,-0.6,-0.8%,0.696
Cc1ccc(OCc2cc(C(=O)N3CC4C[C@@H]5CC3C[C@H](C4)C5)no2)cc1C,-6.1,-1.2,3.6,1.9,-0.5,-2.6%,0.734
Cc1ccc(C)c(NC(=O)CNC(=O)N2CC(=O)Nc3ccccc32)c1,2.6,3.5,0.8,4.5,0.2,/,0.636
CCCS(=O)(=O)N1CCCC(C(=O)N2CCCCC2)C1 (stereo not drawn),-6.9,3.9,2.1,1.5,-0.3,0.9%,0.689
COC(=O)C1C(=O)C2=C(CC1C)NC(=O)CC2c1cccc(C)c1 (stereo not drawn),-0.3,-0.4,3.2,-3.8,-0.1,-0.6%,0.717
CC(C)=CCC/C(C)=C/CNC(=O)C[C@H]1C[C@H](C(=O)N2CCOCC2)[C@@]2(CCC3CCCC3)c3[nH]c4cc(CCC(=O)N(C)C)ccc4c3CCN2C1=O,1.0,-0.5,3.8,/,/,4.8%,0.693
COc1ccc(C(O)Cn2cc([N+](=O)[O-])nc2C)cc1 (stereo not drawn),4.3,2.1,8.3,-4.7,0.4,21.6%,0.649
CCN1CNC(=S)N(c2cccc(C)c2)C1,2.9,1.4,4.2,2.5,2.0,/,0.686
# More records:
SMILES,B2AR ag,HNF4A DNA FP,UCH37 DUB inh,LANA-H2B inh,A1 inh,Vif TR-FRET,E coli growth
CCCCCCCCCCCCS(=O)(=O)CCC(=O)O,0.8,0.0,-0.4,0.2,0.0,11.9%,0.712
Nc1nonc1-n1nnc(C(=O)N/N=C/c2cc(Br)cs2)c1-c1ccccc1,-10.5,-0.3,/,-9.7,0.8,/,/
Cc1ccc(C2=NN(C(=O)CCl)C(c3cccs3)C2)o1 (stereo not drawn),-2.8,1.7,2.7,-3.0,0.9,/,0.671
CCSC1=C(C#N)C(c2ccc(C)s2)CC(=O)N1 (stereo not drawn),7.2,3.5,7.0,0.5,-1.1,/,0.686
OCCN(Cc1ccccc1)Cc1ccccc1O,0.6,-2.2,2.3,-1.1,-0.3,-6.2%,0.642
CC(C(=O)Nc1cccc([N+](=O)[O-])c1)N1C(=O)NC2(CCCC2)C1=O (stereo not drawn),-4.1,1.2,1.5,1.2,1.3,/,0.662
Cc1ccc(C)c(NC(=O)CCC(=O)NNC(=S)Nc2ccccc2)c1,0.6,3.6,-2.8,-1.5,1.2,-0.9%,0.666
COc1cc(S(=O)(=O)N(Cc2cccs2)CC2CCCO2)ccc1-n1cnnn1 (stereo not drawn),3.7,-0.7,-2.7,-6.8,0.6,1.0%,0.664
O=C1CCCN1S(=O)(=O)c1ccc(F)cc1,6.0,1.7,3.2,-1.4,-0.2,/,0.661
CSc1nsc(SCC(=O)Nc2ccccc2C(=O)O)n1,-5.2,3.1,1.9,-1.5,0.7,/,0.659
c1ccc2nc3c(nc2c1)CCc1nonc1-3,-3.2,0.6,9.5,-3.0,0.6,?,0.67
C=C(C)C(=O)Nc1cccc(C2=NOC3(C2)C[C@@H](C(N)=O)N(C(=O)C2(C)CC2)C3)c1 (stereo partly drawn),-2.2,-82.5,3.7,4.1,1.1,/,/
CCOc1c(Cl)cc(CNCC(C)C)cc1OC,-2.4,1.8,4.5,4.3,-0.1,4.0%,0.732
COCCNc1nc(-c2cc(-c3ccc(Cl)cc3)on2)cc(C(C)C)n1,-2.6,-1.3,2.3,-2.1,-0.5,-2.5%,0.698
O/N=C/Cc1[nH]c2ccccc2c1-c1ccccc1,14.3,-1.6,/,2.8,0.1,-7.1%,/
